Compound activity (PubChem BioAssay)
DUX4 txn inh: blocks DUX4-driven transcriptional activation. 293T-iDUX4 ZSCAN4-Gaussia luciferase reporter, 24 h; stronger effect = lower value. activity change, negative = inhibition, % (test concentration not listed). hit rate 0.8% among 37,000;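 active = -10% or lower and over 25 points stronger than a control reporter; inconclusive = -10% or lower with a smaller gap; inactive = above -10%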;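 also: 0% = median of neutral control wells and -100% = median of positive control wells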
DUX4 txn inh difference: recorded beside DUX4 txn inh, whose call it bears; Gaussia minus Italica difference, %; measured here: selective DUX4 reporter inhibition;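 worked out from the two reporters; negative = selective loss of the DUX4 reporter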
DUX4 txn inh control: further read-out of DUX4 txn inh, marked with its call; activity change, negative = inhibition, %; measured here: Italica tet-on control reporter;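 0 = neutral control and -100 = positive control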
* hit, by the source's call; ? = inconclusive; . = not tested or not shown. Only part of the results is shown. The share of hits here may be higher or lower than overall.

SMILES	DUX4 txn inh	DUX4 txn inh difference	DUX4 txn inh control
CCC(=O)N(C)C[C@H]1Oc2cc(-c3ccccc3C)ccc2S(=O)(=O)N([C@@H](C)CO)C[C@H]1C	-2	-4	1.9
OC[C@@H]1[C@H](c2ccccc2)C2(CN(Cc3nccs3)C2)N1Cc1cccnc1	13	9	3.8
N#C[C@@H]1[C@@H](c2ccc(-c3cccnc3)cc2)[C@H](CO)N1C(=O)Nc1ccc(F)cc1	5	-2	6.9
CS(=O)(=O)N1[C@H](C#N)[C@@H](c2ccc(C#Cc3cccc(F)c3)cc2)[C@@H]1CO	1	-3	3.2
CO[C@H]1CN(C)C(=O)c2cc(NC(=O)Nc3c(C)noc3C)ccc2OC[C@H](C)N(CC2CC2)C[C@H]1C	-7	-6	-1.3
CCCNC(=O)N1CCC2(CC1)CN(C(=O)NC(C)C)[C@@H](CO)c1c2c2ccc(OC)cc2n1C	6	0	5.7
O=C(C[C@@H]1CC[C@@H]2[C@H](COC[C@H](O)CN2Cc2ccc(F)cc2)O1)NCc1ccncn1	4	5	-1.8
C[C@H]1COCn2nncc2CC[C@H](C)C(=O)N1	-4	-2	-2.2
COc1ccc(S(=O)(=O)N(C)C[C@@H]2Oc3ccc(NC(=O)CCCCCC(=O)Nc4ccccc4N)cc3C(=O)N([C@H](C)CO)C[C@@H]2C)cc1	-3	0	-3.2
C[C@H]1CN([C@@H](C)CO)C(=O)CCCn2cc(nn2)CO[C@@H]1CN(C)S(=O)(=O)c1ccc2ccccc2c1	-1	1	-2.3
CC(C)CC#Cc1ccc2c(c1)O[C@@H](CN(C)C(=O)c1ccccc1F)[C@@H](C)CN([C@@H](C)CO)S2(=O)=O	1	1	-0.1
O=C(C[C@@H]1C=C[C@@H](NC(=O)NC2CCCCC2)[C@H](CO)O1)NCc1ccc(F)cc1	6	10	-4.1

Two compounds picked at random from the list so far, as already listed:
SMILES	DUX4 txn inh	DUX4 txn inh difference	DUX4 txn inh control
CCCNC(=O)N1CCC2(CC1)CN(C(=O)NC(C)C)[C@@H](CO)c1c2c2ccc(OC)cc2n1C	6	0	5.7
C[C@H]1COCn2nncc2CC[C@H](C)C(=O)N1	-4	-2	-2.2

Sorted by heavy-atom count (low to high): part of the list above.
SMILES	DUX4 txn inh	DUX4 txn inh difference	DUX4 txn inh control
C[C@H]1COCn2nncc2CC[C@H](C)C(=O)N1	-4	-2	-2.2
CS(=O)(=O)N1[C@H](C#N)[C@@H](c2ccc(C#Cc3cccc(F)c3)cc2)[C@@H]1CO	1	-3	3.2
OC[C@@H]1[C@H](c2ccccc2)C2(CN(Cc3nccs3)C2)N1Cc1cccnc1	13	9	3.8
N#C[C@@H]1[C@@H](c2ccc(-c3cccnc3)cc2)[C@H](CO)N1C(=O)Nc1ccc(F)cc1	5	-2	6.9
O=C(C[C@@H]1CC[C@@H]2[C@H](COC[C@H](O)CN2Cc2ccc(F)cc2)O1)NCc1ccncn1	4	5	-1.8
COc1ccc(S(=O)(=O)N(C)C[C@@H]2Oc3ccc(NC(=O)CCCCCC(=O)Nc4ccccc4N)cc3C(=O)N([C@H](C)CO)C[C@@H]2C)cc1	-3	0	-3.2

Returning to the listing with the five entries that preceded the break.
SMILES	DUX4 txn inh	DUX4 txn inh difference	DUX4 txn inh control
C[C@H]1COCn2nncc2CC[C@H](C)C(=O)N1	-4	-2	-2.2
COc1ccc(S(=O)(=O)N(C)C[C@@H]2Oc3ccc(NC(=O)CCCCCC(=O)Nc4ccccc4N)cc3C(=O)N([C@H](C)CO)C[C@@H]2C)cc1	-3	0	-3.2
C[C@H]1CN([C@@H](C)CO)C(=O)CCCn2cc(nn2)CO[C@@H]1CN(C)S(=O)(=O)c1ccc2ccccc2c1	-1	1	-2.3
CC(C)CC#Cc1ccc2c(c1)O[C@@H](CN(C)C(=O)c1ccccc1F)[C@@H](C)CN([C@@H](C)CO)S2(=O)=O	1	1	-0.1
O=C(C[C@@H]1C=C[C@@H](NC(=O)NC2CCCCC2)[C@H](CO)O1)NCc1ccc(F)cc1	6	10	-4.1
O=C(Cc1cccnc1)N1CC(=O)N2[C@H](CO)[C@@H](c3ccc(C#CC4CCCCC4)cc3)[C@H]2C1	3	2	1.2
CC=Cc1ccc2n(c1=O)C[C@H]1[C@H](CO)[C@@H](C(=O)NCCC)[C@@H]2N1C(=O)c1ccccc1F (mixture of isomers)	-2	-4	2.0
CCCNC(=O)[C@H]1[C@H](CO)[C@H]2Cn3c(cccc3=O)[C@@H]1N2C(=O)Nc1cc(F)ccc1F	-1	1	-1.3
C[C@@H]1CC=CC[C@@H](c2cccc(Cl)c2)NC(=O)[C@H](C)N(C)C(=O)c2ccccc2O1 (mixture of isomers)	2	2	0.2
CN(C)Cc1cn(CC[C@H]2CC[C@@H](NS(=O)(=O)c3ccc(-c4ccccc4)cc3)[C@H](CO)O2)nn1	6	11	-5.6
O=C(CN1CCOCC1)N[C@H]1CC[C@H](CCNS(=O)(=O)c2ccccc2F)O[C@@H]1CO	-4	-4	0.7
O=C(C1CC1)N1CC2(C1)[C@H](c1ccccc1)[C@H](CO)N2Cc1cncnc1	0	-2	1.5
O=C(Nc1ccc2c(c1)[C@H]1C[C@@H](CC(=O)N3CCCCC3)O[C@H](CO)[C@H]1O2)NC1CCCCC1	9	0	8.3
C[C@H](CO)N1C[C@H](C)[C@H](CN(C)C(=O)c2ccncc2)OCc2cn(nn2)CCCC1=O	-4	0	-3.2
C[C@@H]1CN([C@H](C)CO)C(=O)c2cc(C#CCN(C)C)cnc2O[C@@H]1CN(C)Cc1cccc(C(=O)O)c1	0	-2	2.4
CCCC(=O)N1CC2(C1)CN(C(=O)C1CCOCC1)[C@H](CO)c1[nH]c3cc(OC)ccc3c12	14	3	11
CO[C@H]1CN(C)C(=O)c2cc(NC(=O)c3ccc4c(c3)OCO4)ccc2OC[C@@H](C)NC[C@@H]1C	-5	-5	-0.1
N#Cc1ccc(-c2ccc([C@H]3[C@@H](CO)N4CCCCN(C(=O)Nc5ccc(F)cc5)C[C@@H]34)cc2)cc1	?	.	.
C[C@@H]1CN([C@H](C)CO)C(=O)c2ccccc2-c2ccccc2CO[C@@H]1CN(C)S(=O)(=O)c1ccc(F)cc1	14	9	4.8
C[C@@H]1CN([C@@H](C)CO)C(=O)c2cc(C#CC3(O)CCCC3)cnc2O[C@@H]1CN(C)C(=O)Nc1ccc2c(c1)OCO2	-1	2	-3.3
COc1ccc2c3c([nH]c2c1)[C@@H](CO)N(C(=O)Cc1ccccn1)CC31CN(Cc2ccccn2)C1	1	2	-0.6
CCS(=O)(=O)Nc1ccc2c(c1)C(=O)N(C)[C@H]1CC[C@H](CC(=O)N[C@H]3CCN(Cc4ccccc4)C3)O[C@H]1CO2	1	1	0.1
O=C(CC1CC1)N1CC2(C1)[C@@H](c1ccccc1)[C@@H](CO)N2Cc1cccc(F)c1	-1	3	-3.9
C[C@H]1CN([C@@H](C)CO)C(=O)c2c(c3ccccc3n2C)-c2ccccc2CO[C@@H]1CN(C)S(C)(=O)=O	20	18	1.9
COc1ccc(C[C@H]2CCc3cnnn3COC[C@H](Cc3ccccc3)NC2=O)cc1	-2	1	-2.3
COc1ccc(NC(=O)N(C)C[C@@H]2OCCCC[C@@H](C)Oc3ccc(NS(=O)(=O)c4cccs4)cc3C(=O)N([C@@H](C)CO)C[C@H]2C)cc1	3	0	3.1
C[C@H]1CN([C@@H](C)CO)C(=O)c2c(c3ccccc3n2C)-c2ccccc2CO[C@H]1CN(C)S(=O)(=O)c1ccsc1	?	.	.
C[C@H]1CN([C@@H](C)CO)C(=O)c2ccccc2-c2ccccc2CO[C@@H]1CN(C)S(C)(=O)=O	5	5	-0.6
COc1ccccc1-c1ccc([C@H]2[C@@H](CO)N(C(C)=O)[C@@H]2CN(C)C(C)=O)cc1	-3	1	-4.0
N#Cc1cccc(-c2ccc(C3[C@@H]4CN(C(=O)c5ccccn5)C[C@H]3N4)cc2)c1 (stereo partly drawn)	?	.	.
N#C[C@H]1[C@@H](c2ccc(C#Cc3cccc(F)c3)cc2)[C@@H](CO)N1C(=O)C1CC1	0	-1	1.6
COc1ccc2c3c(n(C)c2c1)[C@@H](CO)N(C)CC31CN(C(=O)NC(C)C)C1	5	12	-6.9
COc1ccc(-c2ccc([C@@H]3[C@@H](CO)N4C(=O)CN(C(=O)C5CC5)C[C@@H]34)cc2)cc1	-4	-2	-2.2
CCC(=O)N1[C@H](CO)[C@@H](c2ccccc2)[C@@H]1CN(C)C(=O)CN1CCOCC1	0	-3	2.9
CO[C@H]1CN(C)C(=O)c2cc(NC(=O)C3CCOCC3)ccc2OC[C@@H](C)NC[C@H]1C	4	6	-1.5
O=C(C[C@H]1CC[C@H](NC(=O)CN2CCOCC2)[C@H](CO)O1)NC1CCC1	0	1	-0.5
COc1ccccc1CNC(=O)C[C@H]1CC[C@@H]2[C@H](COC[C@@H](O)CN2C(=O)Nc2ccccc2)O1	11	-3	14
COc1ccc2c3c(n(C)c2c1)[C@@H](CO)N(C(=O)c1ccccn1)CC31CN(C(C)=O)C1	15	4	11
CN(C)C(=O)C[C@H]1CC[C@@H]2[C@H](COC[C@@H](O)CN2S(=O)(=O)c2ccccc2)O1	10	8	2.3
C/C=C/c1ccc(C2[C@@H]3CN(S(=O)(=O)c4ccccc4)C[C@H]2N3)cc1 (stereo partly drawn)	?	.	.
CCC(=O)Nc1ccc2c(c1)C(=O)N(C)[C@@H]1CC[C@H](CC(=O)N[C@H](C)c3ccccc3)O[C@H]1CO2	2	5	-3.2
COC(=O)C[C@H]1C[C@@H]2c3cc(NC(=O)Nc4ccc(C(F)(F)F)cc4)ccc3O[C@@H]2[C@@H](CO)O1	?	.	.
COc1cccc(-c2ccc3c(c2)O[C@@H](CN(C)Cc2cccnc2)[C@@H](C)CN([C@@H](C)CO)S3(=O)=O)c1	2	2	-0.1
COc1ccc(OC(=O)N(C)C[C@@H]2OCc3ccccc3-c3ccccc3C(=O)N([C@@H](C)CO)C[C@@H]2C)cc1	7	10	-2.7
C[C@@H]1CN([C@H](C)CO)C(=O)c2c(c3ccccc3n2C)-c2ccccc2CO[C@@H]1CN(C)C(=O)Cc1ccccc1	-1	-7	6.4
O=C(c1ccccc1F)N1CC2(C1)[C@H](c1ccccc1)[C@H](CO)N2CC1CCOCC1	-2	-7	4.7
CNC[C@@H]1Oc2c(NC(=O)Nc3ccc(C(F)(F)F)cc3)cccc2C(=O)N([C@H](C)CO)C[C@@H]1C	-3	0	-2.9
Cc1noc(C)c1S(=O)(=O)N(C)C[C@H]1Oc2c(NC(=O)c3ccc(-c4nccs4)cc3)cccc2C(=O)N([C@H](C)CO)C[C@H]1C	5	-3	7.7
C[C@@H]1CN([C@H](C)CO)C(=O)c2cc(NC(=O)Nc3ccc4c(c3)OCO4)ccc2O[C@@H]1CN(C)C	-2	-2	0.4
CCCNC(=O)N1CC2(C1)[C@H](c1ccccc1)[C@H](CO)N2Cc1ccc(Cl)cc1	-3	-8	5.5
CN1c2ccc(-c3cccc(C#N)c3)cc2[C@@H]2[C@@H](CCN2C(=O)NC2CCCC2)[C@H]1CO	?	.	.
COc1ccc2c3c([nH]c2c1)[C@@H](CO)NCC31CCN(C(=O)C2CCOCC2)CC1	16	19	-3.2
CCCC(=O)Nc1ccc2c(c1)OC[C@@H](C)N(S(=O)(=O)c1cn(C)cn1)C[C@H](C)[C@H](OC)CN(C)C2=O	4	-2	6.0
O=C(Nc1ccc(F)cc1)N1C[C@H]2[C@@H](c3ccccc31)[C@@H](CO)N2C(=O)c1ccncc1	0	-2	1.6
C[C@@H]1CN([C@@H](C)CO)C(=O)CCCn2cc(nn2)CO[C@@H]1CN(C)S(=O)(=O)c1cccc(C#N)c1	5	6	-0.5
C[C@@H]1C/C=C\C[C@H](c2ccc3c(c2)OCO3)NC(=O)[C@@H](c2ccccc2)CC(=O)N1	-4	-7	3.0
N#Cc1ccc(-c2ccc([C@@H]3[C@@H](CO)N4CCCCN(C(=O)Nc5ccc(F)cc5)C[C@H]34)cc2)cc1	-9	8	-17
CN(C)CC(=O)N1[C@@H](C#N)[C@H](c2ccc(-c3cccc(C(=O)N(C)C)c3)cc2)[C@@H]1CO	2	0	2.0
CN(C)c1ccc2c(c1)[C@H]1C[C@@H](CC(=O)NCC3CC3)O[C@@H](CO)[C@H]1O2	8	3	5.1
